# Screening data as filed in PubChem.
# Rango dissoc inh = inhibitors of RanGTP-induced Rango-importin beta complex dissociation; O95149+P62826; Biochemical FRET Rango-importin beta, RanGTP-induced dissociation; Potency, µM (top dose mostly 46.1 µM), inactives show at the highest dose activity change, negative = inhibition; 0.071% of 340,000 active; AID 540253; active means falling FRET ratio curve, often poorly fitted, with flat reads before Ran was added; inconclusive means other falling curves, or compound fluorescence or quenching; inactive means flat or rising ratio curve;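 also: potency is read from the fitted curve at half-maximal effect; % of control where 0% means no effect; nearly all actives have a fitted effect of over 45% in size; -100% = wells without RanGTP and RCC1; the record marks most hits as doubtful in a second field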
#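 Rango/importin beta premix (0.1/0.25 uM final), PBS + 1 mM DTT + 0.02% Tween-20 + 0.1% BSA; cpd 5 min RT; FRET pre-read; + RanGTP-RCC1 (0.6 uM Ran, 2 mM GTP, 0.2 uM RCC1); 45 min RT; FRET post-read, ex 430, em 486/530 nm.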
# GLA inh pH 4.5 = blocks human alpha-galactosidase A at pH 4.5 | P06280 | purified enzyme, 4-MU-alpha-Gal fluorescence, pH 4.5 | activity change, negative = inhibition, % at 105 µM | 230,000 tested, under 10 active; inconclusive = small, poorly fitted or top-dose-only inhibition, or a rising curve; inactive = flat fitted curve, though single readings scatter; no compound was filed as active;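 also: 0% = full activity with enzyme and -100% = basal without enzyme; dose as in the result columns while the protocol names 77 µM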
# Target sequence (P06280 whole entry, looked up): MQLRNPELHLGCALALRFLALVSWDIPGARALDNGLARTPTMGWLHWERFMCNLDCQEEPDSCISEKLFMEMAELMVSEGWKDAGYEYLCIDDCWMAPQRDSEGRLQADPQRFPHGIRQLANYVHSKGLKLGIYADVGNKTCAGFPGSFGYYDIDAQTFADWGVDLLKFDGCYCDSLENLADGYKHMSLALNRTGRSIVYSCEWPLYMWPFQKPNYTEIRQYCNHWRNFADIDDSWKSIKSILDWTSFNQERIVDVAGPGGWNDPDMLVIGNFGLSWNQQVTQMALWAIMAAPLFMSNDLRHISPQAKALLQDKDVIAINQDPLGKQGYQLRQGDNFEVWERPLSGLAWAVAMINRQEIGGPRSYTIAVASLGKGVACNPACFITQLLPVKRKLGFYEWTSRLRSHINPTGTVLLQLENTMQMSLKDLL
# Rango-impB inh = prevents formation of the Rango-importin beta complex; Rango CFP/YFP FRET sensor + importin beta, 45 min; Q14974; AID 540263; 0.031% of 340,000 active; Potency, µM (top dose mostly 92.2 µM), for inactives: at the top dose inhibition of complex formation; active = rising FRET ratio curve, often small or poorly fitted; inconclusive = mostly compound fluorescence or quenching in the first reads; inactive = flat curves in all reads;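 also: potency is read from the fitted curve at half-maximal effect; 0% = DMSO wells and 100% = buffer wells lacking importin beta; nearly all actives have a fitted effect of over 15% in size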
#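 FRET biosensor Rango (snurportin 1 IBB between N-terminal EYFP and C-terminal Cerulean), 50 nM in PBS/1 mM DTT/0.02% Tween-20/0.1% BSA, preincubated 5 min RT with compound; 0.125 microM importin beta added, 45 min RT, CFP/YFP FRET ratio read.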
# miR-21 reporter = miR-21 reporter, rising signal; HeLa miR-21 FLuc reporter, luciferase, 48 h; Potency, µM (titrated, usually from 38.3 µM), for the others: at the top dose reporter change, positive = more light; 340,000 tested, under 10 active; AID 2288; active = well fitted rising curve with a large enough effect; inconclusive = small, poorly fitted or top-dose-only effect; inactive = no such curve, though single readings can be large or run the other way;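 also: % of control where 0% means no effect; miR-21 action dims this reporter so a rising signal means less miR-21 action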
#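 Luminescence from a firefly luciferase reporter carrying a miR-21 binding site downstream, stably expressed under a CMV promoter in HeLa cells that make miR-21 endogenously, reports miRNA modulation after 48 h compound exposure up to approximately 40uM final.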
# Numbers without * were called inactive; ? = inconclusive; / = not tested or not shown; [ ] = dose if it differs, or a comment. Only part of the results is shown (hit frequency here may not be typical).
SMILES,Rango dissoc inh,GLA inh pH 4.5,Rango-impB inh,miR-21 reporter
CCCCC1CCC(C(=O)NC2CCS(=O)(=O)C2)CC1 (stereo not given),15.0%,8.1,6.9%,1.4%
COc1cccc(C2CC(c3cccc(NS(C)(=O)=O)c3)=NN2C(=O)c2ccccc2)c1OC (stereo not given),-13.6%,2.1,-1.4%,8.3%
O=C(Nc1cccc(F)c1)N1CC=C(n2c(=O)[nH]c3ccccc32)CC1,-9.0%,12.1,-1.0%,15.8%
CCOC(=O)[C@H]1[C@H]2COc3ccccc3[C@@H]2N2C(=O)c3ccc(C)cc3NC(=O)[C@@]12C,-3.4%,/,-0.5%,/
CC(C)CCN1CCN(Cc2nc3c(s2)CCCC3)CC1CCO (stereo not given),-18.6%,10.8,0.1%,-0.3%
Nc1ncnc2c1ncn2[C@@H]1O[C@H](CNCc2ccccc2OCc2ccc(Cl)cc2Cl)[C@@H](O)[C@H]1O,11.4%,/,-2.5%,/
COc1ccc(OC)c(CNC(=O)C2CCN(S(C)(=O)=O)CC2)c1,9.7%,-7.4,-1.6%,3.1%
Cc1ccc(NC(=O)COC(=O)c2ccc3c(=O)n4c(nc3c2)CCC4)c(Br)c1,-4.0%,/,-7.2%,/
C=CCn1c(SCC(=O)Nc2ccc(N3CCOCC3)cc2)nnc1-c1ccco1,0.5%,/,-2.9%,-0.4%
CC(C)(C)c1ccc(C(=O)N2CCC(NC(=O)c3ccccc3)CC2)cc1,1.3%,/,-1.8%,2.0%
C=CCn1sc(=N)c(C#N)c1N,-0.4%,3.8,2.6%,7.5%
CCCCOC(=O)c1c(C)oc2ccc(NS(=O)(=O)c3ccc4c5c(cccc35)C(=O)N4)cc12,-9.9%,-4.4,-5.4%,-11.5%

# Reprinted from the part before: 2 compounds, then new ones.
SMILES,Rango dissoc inh,GLA inh pH 4.5,Rango-impB inh,miR-21 reporter
C=CCn1sc(=N)c(C#N)c1N,-0.4%,3.8,2.6%,7.5%
CCCCOC(=O)c1c(C)oc2ccc(NS(=O)(=O)c3ccc4c5c(cccc35)C(=O)N4)cc12,-9.9%,-4.4,-5.4%,-11.5%
O=C(CN1CCN(S(=O)(=O)N2CCCCCC2)CC1)Nc1ccc(F)cc1,3.8%,/,-2.8%,-1.9%
Cc1sc2ncnc(Sc3nnnn3-c3ccccc3)c2c1C,7.8%,2.2,-3.2%,?
CCn1nnc(NC(=O)c2cc(Cl)c(OC)c(Cl)c2)n1,-1.6%,0.9,-1.3%,-6.5%
Cc1[nH]c2c(C)cccc2c(=O)c1CN1CCCCCC1,-7.9%,/,-1.0%,-1.2%
CC(C)Oc1ccc(C(=O)OCC(=O)c2ccc[nH]2)cc1,-3.2%,/,-1.6%,/
O=C(NN=C1C2CC3CC(C2)CC1C3)c1ccncc1,-26.4%,-9.1,?,-2.5%
COc1cccc(C(=O)Nc2cccc3c2ccc2cccn23)c1,-16.7%,2.7,?,-25.5%
COc1ccccc1NS(=O)(=O)c1ccc(C)c(C(=O)NNC(=O)c2csc(N3CCOCC3)n2)c1,6.7%,/,1.3%,/
O=C(CN1C(=O)CCC1=O)Nc1nc2c(F)cc(F)cc2s1,1.3%,/,-3.5%,/
c1ccc2c3c(cc(N4CCOCC4)c2c1)OC1(N2CCOCC2)CCCCC1O3 (stereo not given),12.9%,1.3,2.6%,-7.5%
O=C(CCc1cccc(Cl)c1)NC1CCCN(Cc2ccccc2F)C1 (stereo not given),-0.6%,/,0.7%,-6.7%
Cc1ccc(C2NCCS2)cc1 (stereo not given),-7.7%,-1.3,3.8%,-0.3%
CCOC(=O)CC1C(=O)NCCN1C(=S)Nc1ccccc1 (stereo not given),20.8%,-5.5,-5.8%,-0.1%
O=C(CNC(c1ccccc1)c1ccccc1)Nc1ccccc1-c1ccccc1,8.7%,-15.1,2.0%,27.7%
COc1ccc(-c2nc3n(n2)C(c2ccncc2)C(C(N)=O)=C(C)N3)cc1 (stereo not given),-4.2%,-1.8,-2.3%,-4.8%
O=C1c2ccccc2NC2(CCCC2)N1NS(=O)(=O)c1ccccc1,19.3%,-13.4[21.1 µM],-1.9%,?
Cc1ccccc1Cn1ccc(NC(=O)c2cnn3c2NC(c2ccccc2)CC3C(F)(F)F)n1 (stereo not given),-9.8%,-6.2,-2.0%,2.3%
CCOC(=O)N1CCN(C(=O)CCCCCn2c(=S)[nH]c3ccsc3c2=O)CC1,-1.8%,-4.0[21.1 µM],5.2%,-0.1%
C=CCc1c(C)nc(C)nc1N/N=C/c1ccccc1,17.5%,17.6,4.3%,-5.4%
O=C(CSc1nnc(COc2ccccc2Cl)o1)NC(=O)NCc1ccco1,-7.3%,-6.4,-1.2%,-4.6%
CCOC(=O)c1ccc(N2C(=O)CC(N3CCOCC3)C2=O)cc1 (stereo not given),0.7%,4.6,-0.6%,-1.5%
COc1ccc(-c2csc(Nc3ncccc3C)n2)cc1OC,-4.1%,-15.4,-0.6%,-47.6%
Cc1cc(/C=N/NC(=O)Cn2c3ccccc3c(=O)c3ccccc32)c(C)n1-c1ccccc1,?,15.5,?,-10.6%
CCOc1ccc(NC(=O)CC2NCCNC2=O)cc1 (stereo not given),20.7%,5.3,3.1%,-16.5%
O=C(CSc1ccccc1)N1CCc2ccccc21,0.1%,3.3,-1.2%,-66.3%
CCSC1=NCCN1C(=O)c1ccc(S(=O)(=O)N(CC)CC)cc1,-4.2%,6.6,-0.9%,0.3%
CCCC(=O)Oc1ccc(C2NC(=O)c3ccccc3O2)cc1OC (stereo not given),7.9%,/,4.4%,-3.1%
CCn1c(SCc2cccc(F)c2)nc2c(c1=O)SCC2,-0.1%,1.6,-0.9%,7.2%
CCOc1ccc(-n2c(SCC(=O)Nc3ccc(C(=O)O)cc3)nc3ccccc3c2=O)cc1,4.6%,/,1.5%,-2.4%
COCCNC(=O)C(C(=O)c1ccc(F)cc1)n1cc(C)ccc1=O (stereo not given),-0.2%,11.7,-2.3%,-1.5%
CC(=O)Nc1ccn(Cc2c(F)cccc2Cl)n1,0.9%,0.4,0.0%,-28.7%
Cc1c(C(=O)NC2CCOC2)oc2c(F)cccc12 (stereo not given),-19.0%,/,-1.2%,-77.5%
COc1ccc2oc(=O)c(N3C(=O)c4ccccc4C3=O)cc2c1,-4.2%,3.2,-4.5%,2.5%
CCN(CC(=O)Nc1c(F)cccc1F)C(=O)CNC(=O)c1cccs1,14.3%,/,0.3%,/
O=C(Cn1cc(C(=O)c2ccco2)c2ccccc21)NC1CC1,-17.3%,4.1,-1.2%,-9.6%
COc1ccc2c(CC(=O)N(C)CC3COc4ccccc4O3)coc2c1 (stereo not given),-15.8%,-4.7,?,-0.6%
COc1cccc(Cn2nc(C(=O)O)c3ccccc3c2=O)c1,10.9%,6.1,3.1%,-1.9%
C=CCc1cccc(CNc2nc3ccccc3n2CCN2CCOCC2)c1O,7.9%,-15.5,-1.2%,0.4%
C=CCSc1nnc(NC(=O)C2CC(=O)N(c3ccc4c(c3)OCCO4)C2)s1 (stereo not given),14.0%,/,-3.4%,/
Cc1ccc([N+](=O)[O-])cc1N/C=C1\CCc2ccccc2C1=O,0.0%,-4.2,-7.7%,-11.0%
Cc1c(C(=O)N2CCCC2)sc(NC(=O)c2ccccc2)c1C#N,?,-7.1,?,-10.5%
N#CC(C#N)=CNc1cccnc1,-13.6%,-3.2,-4.4%,-2.1%
CCC(=O)N1N=C(c2cccc(NS(C)(=O)=O)c2)CC1c1cccs1 (stereo not given),2.3%,4.3,-0.5%,-0.2%
COc1ccc(OC)c(CN2CCN(CC(=O)Nc3ccccc3C(=O)NC3CC3)CC2)c1,4.0%,/,-2.3%,/
Brc1ccc(-c2nnc(Cc3ccccc3)o2)cc1,2.9%,-4.2,5.1%,-79.9%
Cn1c(SCc2cccc(F)c2)nnc1-c1ccccn1,-11.0%,-8.0,-1.1%,-44.2%
Cc1ccc(NC(=O)c2sccc2-n2cccc2)c(C)c1,5.6%,-5.5,0.0%,-14.3%
O=C(O)c1cc(-c2ccncc2)nc2ccc(S(=O)(=O)N3CCOCC3)cc12,-12.5%,-4.2,?,-5.0%
CCN(CC(=O)Nc1ccccc1C(F)(F)F)C(=O)c1cc(-c2cccs2)nn1-c1ccccc1,10.8%,/,-0.1%,0.7%
COc1ccccc1-c1cnnc(N/N=C/c2ccc(-c3cccc(Br)c3)o2)n1,0.7%,-6.1,7.2%,-5.5%
O=C(CN(CC1CCCO1)C(=O)CNS(=O)(=O)c1ccc(Cl)cc1)NCc1ccc(F)cc1 (stereo not given),1.8%,/,1.5%,0.5%
CC1CCN(C(=O)CSc2nc(C(C)C)nc3c2c(=O)n(C)c(=O)n3C)CC1,-7.0%,/,0.2%,0.9%
COC(=O)c1cccc(C(=O)Nc2ccc(C)cc2)n1,11.6%,1.6,1.2%,-17.6%
COc1ccccc1C(=O)NCCC(=O)N1CCN(c2ccc(C(F)(F)F)cn2)CC1,10.0%,/,-1.1%,/
COc1cc2c(cc1NC(=O)c1cc(-c3cccnc3)nc3ccc(C)cc13)oc1ccccc12,3.0%,1.4,0.6%,-5.5%
CC(C)(C)c1ccc(-c2nnc(N)s2)cc1,-9.1%,-1.2,-0.7%,-53.2%
O=C(CN1C(=O)C2CCCCC2C1=O)Nc1ccc(S(=O)(=O)Nc2ncccn2)cc1 (stereo not given),10.6%,7.6,-1.0%,-0.3%
COc1ccc(NC(=O)C(=O)Nc2cccc3cccnc23)cc1OC,?,/,0.1%,-12.7%
CCOc1ccc(S(=O)(=O)N2CCC(C(=O)N3CCCCCC3)CC2)cc1C,-10.1%,/,-3.7%,0.0%
CC(C)(C)NCc1cc(Cl)ccc1OCc1ccccc1F,12.1%,0.2,-1.3%,0.5%
# (listing goes on)
SMILES,Rango dissoc inh,GLA inh pH 4.5,Rango-impB inh,miR-21 reporter
COc1cccc(NC(=S)N2CCC(NC(=O)c3ccco3)CC2)c1,-6.7%,/,-3.7%,0.5%
COc1ccc([C@H]2CC(=O)C=C(c3ccc4ncccc4c3)C2)cc1,-4.1%,/,1.7%,/
CC1=C(C(=O)OCC2CCCO2)C(c2ccsc2)C2=C(CC(C)(C)CC2=O)N1 (stereo not given),?,7.1,?,3.6%
C/C(=N\NS(=O)(=O)c1ccc(C(C)(C)C)cc1)c1ccccc1,-0.9%,/,0.0%,-6.7%
O=C(c1ccc(COc2ccc(Cl)cc2Cl)o1)N1CCCC1,5.0%,/,3.1%,-45.4%
CC(=O)n1cc(/C=N/NC(=O)c2sc(C)nc2C)c2ccccc21,-16.3%,4.4,-4.3%,4.7%
COc1ccc(S(=O)(=O)Nc2cc3c4c(c2)CCN4C(=O)CC3)cc1,6.3%,/,0.1%,/
CC(C)C[C@H](NC(=O)OC(C)(C)C)c1nnc(SCc2ccccc2)o1,?,8.2,9.9%,-3.1%
CCOC(=O)C1=C(COC(=O)c2cc(S(=O)(=O)N(C)C)ccc2C)NC(=O)NC1C (stereo not given),20.4%,/,0.8%,/
COc1cccc(NC(=O)c2nc3ncccn3n2)c1,1.5%,6.6,0.3%,-13.3%
COc1ccccc1NC(=O)Nc1nnc(-c2ccco2)s1,/,12.6,/,-25.8%
CSc1ccc(CN2CCN(C(=O)c3ccncc3)CC2)cc1,0.5%,7.4,0.0%,6.3%
CC(=O)Nc1ccc(NC(=O)COc2ccc(Br)cc2C)cc1,-6.6%,16.4,1.1%,-14.0%
COc1ccc(N(CC(=O)N2CCCCCC2)S(=O)(=O)c2ccccc2)cc1,-6.2%,/,-0.9%,-2.8%
O=C(O)c1ccc(S(=O)(=O)N2CCC(c3nc(-c4ccccc4Cl)no3)CC2)cc1,20.5%,2.5,-0.1%,-1.8%
CCCc1nn(C)c2c1C(c1cccnc1)C(C#N)=C(N)O2 (stereo not given),4.2%,0.2,0.2%,-1.0%
COc1ccc(NS(=O)(=O)c2csc(C(=O)Nc3ccccc3)c2)cc1,4.7%,-7.9,-0.3%,20.1%
Cc1ccccc1NC(=O)N1CCCC(c2nc(-c3ccc(F)cc3)no2)C1 (stereo not given),-6.2%,5.3,1.6%,-7.9%
O=c1ccc2cc(S(=O)(=O)N3CCOCC3)ccc2o1,19.7%,-6.3,1.6%,-7.8%
